VACV Venus inh: qHTS for Stage-Specific Inhibitors of Vaccinia Orthopoxvirus: Venus Reporter Primary qHTS; Vaccinia virus Venus reporter expression, fluorescence; Potency, µM (highest dose often 36.5 µM), for inactives: top-dose activity change, negative = inhibition, hits mostly inhibitors; 330,000 compounds, 0.46% hits; active means well fitted inhibition curve with a large enough effect; inconclusive means small, poorly fitted or top-dose-only effect; inactive means no such curve, though single readings can be large or run the other way; tested in A549 cells; note: nearly all actives have a fitted effect of over 30% in size; inactives centre near -10
VACV mCherry inh: qHTS for Stage-Specific Inhibitors of Vaccinia Orthopoxvirus: mCherry Reporter Primary qHTS | AID 720579, 2013 | 310,000 compounds, 0.63% hits | Potency, µM (doses to about 36.5 µM), for inactives: at the top dose activity change, negative = inhibition, usual class: inhibitors | Vaccinia virus mCherry reporter infection, fluorescence; about a quarter of the inactives have no number; active = well fitted inhibition curve with a large enough effect; inconclusive = small, poorly fitted or top-dose-only effect; inactive = no such curve, though single readings can be large or run the other way; tested in A549 cells; note: nearly all actives have a fitted effect of over 35% in size; inactives centre near -10
Starred values were filed as active, the others as inactive; i = inactive; ? = inconclusive; . = no result given; & = joins results of further samples; [ ] = dose if it differs, or a comment. % is set by controls: 0 for no effect and ±100 for the full control effect; potency is the fitted concentration of half-maximal effect. This is a random part of the collection. About 0.82% of those tested had a hit in this group.

SMILES	VACV Venus inh	VACV mCherry inh
O=Cc1cn[nH]c1-c1ccccc1	-0.6%	-19.9%
OCCNc1nc2ccccc2n1-c1ncnc2sc3c(c12)CCC3	?	.
NS(=O)(=O)c1cc(C(=O)Nc2ccc3c(c2)CCC3)ccc1Cl	-9.4%	15.4%
COc1ccccc1NC(=O)N1CCN(c2nnc(C)c3c(C)n(-c4ccccc4)nc23)CC1	-19.0%	-20.9%
CN(C)S(=O)(=O)c1ccc(N2CCCC2)c(C(=O)NCC2CCCO2)c1 (centres undefined)	-11.4%	i
CC(C)(C)c1ccc(OCC(=O)NCC(c2cccs2)N2CCOCC2)cc1 (centres undefined)	-3.9%	?
Cc1ccc(NC(=O)c2nc[nH]c2C(=O)N(C)CCO)cc1	0.1%	-14.4%
Cc1nn(-c2ccccc2)c2c1C(c1ccncc1)C(C#N)=C(N)O2 (centres undefined)	-13.8%	.
C#CCNC(=O)C[C@@H]1C[C@@]2(C(=O)OCC)CCC=C2N(Cc2ccco2)C1=O	8.5%	5.3%
c1ccc2c(c1)CNCc1cnnn1-2	-0.8%	3.8%
Cc1ccc(OC(=O)CCC(=O)Nc2ccc(C)c(C)c2)cc1	-1.8%	i
C=CCNC(=O)/C(C#N)=C\c1cc(Cl)c(OCC)c(OC)c1	-16.6%	i
C/C(=N\NC(=O)c1c(-c2ccccc2Cl)noc1C)c1cccc(NC(=O)C(C)C)c1	-3.5%	-14.2%
COC(=O)NNC(=O)/C=C/c1ccccc1	6.6%	-3.2%
CCOC(=O)c1cc(CC)sc1NC(=O)COC	-5.7%	-24.5%
O=C(COc1ccccc1Cl)NCCNC(=O)c1ccco1	-7.1%	-2.7%
COc1ccc(/C=N/Nc2nc3ccccc3[nH]2)cc1OC	-20.4%	?
COC(=O)c1ccc(OCC(O)CN2CCN(C(=O)c3ccco3)CC2)c(OC)c1 (centres undefined)	-1.2%	-11.0%
N#CC1=C(N)N2C(=C(C#N)C1c1cccc(Br)c1)Nc1ccccc12 (centres undefined)	-2.9%	i
CN(C)S(=O)(=O)c1ccc(C(=O)NCCc2ccco2)cc1	-8.4%	i
COc1ccc(-c2cc(C(=O)O)c3sc(N4CCCCC4)nc3n2)cc1OC	-7.8%	-12.6%
CCn1c(SCC(=O)Nc2ccc(N3CCOCC3)cc2)nnc1-c1ccncc1	-10.8%	-16.9%
Cc1ccc(CN2C(=O)CN(S(C)(=O)=O)CC2(C)C(=O)NC(C)C)cc1 (centres undefined)	6.3%	-5.8%
Cc1ccc(OCC(=O)Nc2ccccc2-c2ccccc2NC(=O)COc2ccc(C)cc2)cc1	2.5%	-15.6%
COc1ccc(-c2nc3sc(CCNC(=O)c4ccccc4C)c(C)n3n2)cc1	-8.3%	-7.5%
O=S(=O)(c1ccccc1)n1nc(-c2ccc(Cl)cc2)nc1NCc1ccccc1	-20.4%	-25.7%
O=C1NC(=S)N(C(=O)c2ccc(F)cc2)/C1=C/c1cccnc1	-14.7%	-6.2%
Cc1cc(N2CCOCC2)n2cc(-c3ccc(F)cc3)nc2n1	-17.0%	-14.5%
O=C(c1cc2c(=O)n3ccccc3nc2s1)N1CCN(Cc2ccccc2)CC1	-27.6%	?
CCc1ccc(CN2CCc3nc(N4CCN(CC)CC4)ncc3C2)cc1	-18.5%	-15.0%
Cn1c(N)c(C(=O)COC(=O)C(Cc2ccccc2)NC(=O)c2ccccc2)c(=O)n(C)c1=O (centres undefined)	-0.3%	-7.8%
CCOc1cc(C(C(=O)NCC2CCCO2)N(C(=O)Cn2nnc3ccccc32)c2ccccc2C(C)=O)ccc1O (centres undefined)	-12.3%	-10.1%
CC1=NNC(=O)C1CC(=O)N/N=C/C=C/c1ccccc1 (centres undefined)	20.3%	-1.8%
COc1ccc(C)cc1NC(=O)CN1CCN(c2ccccn2)CC1	-0.6%	-8.2%
COC(=O)C(C)N=Cc1ccccc1 (centres undefined)	-4.5%	-3.7%
Cc1ccc(C(=O)N/C(=C\c2cccc([N+](=O)[O-])c2)C(=O)OCN2C(=O)c3ccccc3C2=O)cc1	-18.1%	-17.5%
O=C(c1cccs1)N1CCCc2cc(NS(=O)(=O)c3ccc(F)cc3)ccc21	-12.5%	-12.8%
O=S1(=O)CC(N2CCCCC2)CN1Cc1ccc(F)cc1 (centres undefined)	2.0%	i
COc1ccc(NS(=O)(=O)c2cccc(C(=O)O)c2)cc1	2.6%	-17.1%
COc1cc(NC(=O)C(NS(=O)(=O)c2ccc3c(c2)CCCC(=O)N3)C(C)C)cc(OC)c1 (centres undefined)	-4.7%	-5.3%
CSc1ccc(OC2(C)CCN(Cc3ccc(C(C)C)cc3)C2)cc1 (centres undefined)	-8.8%	i
CC(=O)N1c2ccccc2C(=O)C1N1CCN(c2ccc(Cl)cc2)CC1 (centres undefined)	-7.8%	-9.3%
COc1ccc(NC(C)=O)cc1NC(=O)CN1CCN(CC(=O)Nc2ccc(Cl)cc2)CC1	-16.6%	.
COc1cc(C(=O)Nc2ccccc2-c2nnn(CC(N)=O)n2)cc(OC)c1OC	-15.3%	-12.1%
NC(=O)/C=C/C(=O)Nc1ccc(Cl)cc1	-0.8%	-1.4%
CCCN(C(=O)Cn1cnc2sc(C)c(S(=O)(=O)N3CCN(c4ncccn4)CC3)c2c1=O)c1cccc(C)c1	-9.1%	-11.9%
CC(=O)c1c(N)n(C)c(=O)n(C)c1=O	-10.1%	-9.9%
COc1cc(NC(=O)CN2CCCN(S(=O)(=O)c3ccc(F)cc3)CC2)cc(OC)c1	-1.5%	-14.3%
COc1cccc(NC(=O)c2ccc(NCCCN3CCC(C)CC3)c([N+](=O)[O-])c2)c1	-16.4%	i
COc1cc(C)ccc1OCc1cc(C(=O)NC(C)Cn2cncn2)no1 (centres undefined)	-21.2%	-7.1%
O=C(Cn1cc(C(F)(F)F)ccc1=O)N1CCCc2ccccc21	-2.2%	-9.7%
Cc1occc1-c1nnc(SCC(=O)N2CCOCC2)n1Cc1ccco1	-5.3%	-10.2%
COc1ccccc1OCc1nc(Cc2ccc(Cl)cc2)no1	-23.3%	-3.5%
COc1ccc(Cl)c(OC)c1C(=O)NC(=O)Nc1c(F)cc(F)cc1F	-5.2%	i
O=C(Nc1ccc2nccnc2c1)Nc1ccccc1Cl	-11.5%	i
COc1ccc(OC)c(C2C(C(=O)c3ccccc3)=C(C)Nc3nc4ccccc4n32)c1 (centres undefined)	-26.0%	i
CCOC(=O)c1ccc(Nc2nc(C(=O)OCC)nc3ccccc23)cc1	?	?
Cn1c(SCC(=O)NCCc2ccc(S(N)(=O)=O)cc2)nc2ccccc2c1=O	2.8%	i
CCOC(=O)C1CCN(c2nc(-c3ccc(Br)cc3)nc3ccccc23)CC1	3.1%&-26.9%	-5.8%
Cc1ccc(C)c(N2CCN(C(=O)c3cc4ccccn4n3)CC2)c1	-8.8%	14.0%
Next part.
SMILES	VACV Venus inh	VACV mCherry inh
O=C(Cc1ccccc1)NCC(=O)N1CCCCC1	-10.0%	-13.9%
O=C(NCc1ccccc1)C(=O)Nc1nc(-c2ccccc2)cs1	-22.9%	?
CC(=O)NC12CC3CC(C1)CC(C(=O)Nc1ccc(C)c(S(=O)(=O)N4CCCCCC4)c1)(C3)C2	-25.3%	-15.1%
CN(C)c1ccc(C=Nc2cnn(C)c2C(N)=O)cc1	-17.9%	.
CCOC(=O)c1[nH]c(C)c(C(=O)N2CCc3ccccc32)c1C	?	.
O=c1cc(C(F)F)oc2c1ccc1ccccc12	-26.5%	-9.5%
C(=N\c1nc2ccccc2n1CCN1CCCCC1)/c1cccs1	-14.4%	-8.6%[1.46 µM]
COc1cc(-c2nnc(NC(=O)CS(=O)(=O)c3ccc(Cl)cc3)o2)cc(OC)c1OC	-13.4%	?
O=C1NCC(Nc2ccccc2)C(=O)N1 (centres undefined)	-3.2%	-11.7%
CCOC(=O)c1sc2ccccc2c1S(=O)(=O)Nc1ccc(C(C)=O)cc1	2.5%	-4.6%
Cc1cccc(-n2c(/C=C/c3ccccc3O)nc3ccccc3c2=O)c1	?	-23.9%
O=C(Nc1cc(S(=O)(=O)N2CCOCC2)ccc1N1CCCCC1)c1ccccc1	-12.0%	i
C/C(=N\N=C(N)N)c1ccc(C)c(C)c1	-24.6%	?
COC(=O)c1ccccc1-n1cccc1C(=O)NP(=O)(N1CCOCC1)N1CCOCC1	1.1%	i
Cc1ccc(CNC(=O)c2ccc(-c3nc(CS(=O)(=O)c4ccc(C)cc4)c(C)o3)cc2)cc1	-23.9%	-20.9%
COc1ccc(NC(=O)c2oc3ccccc3c2NC(=O)C2CCCO2)cc1OC (centres undefined)	-18.2%	-28.5%
Cc1c(NC(=O)CN2CCN(c3ccc([N+](=O)[O-])cc3)CC2)c(=O)n(-c2ccccc2)n1C	-14.6%	-3.4%
O=C1NC(Cc2ccc(O)cc2)c2nc3ccc(Br)cc3c(=O)n2-c2ncccc21 (centres undefined)	-19.7%	-10.7%
CCOC(=O)C1C(=O)NC(c2ccccc2)=NC1c1ccccc1 (centres undefined)	-14.9%	.
O=C(NCC1(c2ccccc2)CCCC1)c1ccco1	-6.8%	i
Cc1ccc(S(=O)(=O)N2CCCCC2)cc1C(=O)OC1CCCCC1=O (centres undefined)	-20.7%	i
CN1CCN(CCCNC(=O)Nc2cccc3ccccc23)CC1	-3.7%	-20.6%
CCCCn1c(SCc2ccccc2C)nc2ccsc2c1=O	-1.8%	-11.1%
CC1CN(c2ccc([N+](=O)[O-])c(NCCOc3ccccc3)c2)CCN1 (centres undefined)	11.2µM*	?
CCO[C@H]1OC(C(=O)NCc2ccccc2)=C[C@@H](c2coc3ccccc3c2=O)[C@@H]1CCCO	-12.7%	-3.0%
CC1(Cc2ccccc2C#N)C(=O)Nc2ccc(-c3ccc4[nH]ccc4c3)cc21 (centres undefined)	?	?
OC(c1cccc(F)c1)c1ncc(-c2ccc(C(F)(F)F)cc2)[nH]1 (centres undefined)	-13.2%	6.9%
CCSc1nc(-c2ccccc2F)nc2c1Cc1c(CO)cnc(C)c1O2	-10.2%	-5.5%
COC(=O)C(Cc1c[nH]c2ccccc12)NC(=O)COc1ccc(Cl)cc1Cl (centres undefined)	-5.9%[7.34 µM]	-13.5%[7.34 µM]
COc1ccc(O)c(C(=O)c2cnc3nc4ccccc4n3c2)c1	-9.0%	-21.4%
CC(=O)OC1=CC[C@H]2[C@@H]3CC[C@H]4C[C@H](OC(C)=O)[C@@H](OC(C)=O)C[C@]4(C)[C@H]3CC[C@]12C	8.7%	5.1%
Cc1cc(C)n2ncc(C(=O)Nc3cccc(O)c3)c2n1	-9.4%	-10.7%

By substructure: the entries above with a Cl atom.
SMILES	VACV Venus inh	VACV mCherry inh
NS(=O)(=O)c1cc(C(=O)Nc2ccc3c(c2)CCC3)ccc1Cl	-9.4%	15.4%
C=CCNC(=O)/C(C#N)=C\c1cc(Cl)c(OCC)c(OC)c1	-16.6%	i
C/C(=N\NC(=O)c1c(-c2ccccc2Cl)noc1C)c1cccc(NC(=O)C(C)C)c1	-3.5%	-14.2%
O=C(COc1ccccc1Cl)NCCNC(=O)c1ccco1	-7.1%	-2.7%
O=S(=O)(c1ccccc1)n1nc(-c2ccc(Cl)cc2)nc1NCc1ccccc1	-20.4%	-25.7%
CC(=O)N1c2ccccc2C(=O)C1N1CCN(c2ccc(Cl)cc2)CC1 (centres undefined)	-7.8%	-9.3%
COc1ccc(NC(C)=O)cc1NC(=O)CN1CCN(CC(=O)Nc2ccc(Cl)cc2)CC1	-16.6%	.
NC(=O)/C=C/C(=O)Nc1ccc(Cl)cc1	-0.8%	-1.4%
COc1ccccc1OCc1nc(Cc2ccc(Cl)cc2)no1	-23.3%	-3.5%
COc1ccc(Cl)c(OC)c1C(=O)NC(=O)Nc1c(F)cc(F)cc1F	-5.2%	i
O=C(Nc1ccc2nccnc2c1)Nc1ccccc1Cl	-11.5%	i
COc1cc(-c2nnc(NC(=O)CS(=O)(=O)c3ccc(Cl)cc3)o2)cc(OC)c1OC	-13.4%	?
COC(=O)C(Cc1c[nH]c2ccccc12)NC(=O)COc1ccc(Cl)cc1Cl (centres undefined)	-5.9%[7.34 µM]	-13.5%[7.34 µM]

High-throughput results (PubChem)
